Screening results as filed in PubChem.
TRPN1 ag – zebrafish TRPN1 channel agonists, primary screen, cell-based, HEK293, calcium fluorescence. 220,000 tested, 0.18% active. HEK293 zebrafish TRPN1-YFP, Fluo-8 calcium fluorescence; 100% = response to 87 µM carbachol. activation, % at 3 µM;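 active = activation above its plate's cutoff, the mean activation of test wells on that plate plus 3 SD, cut at about 19% in these data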;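 also: 0% = DMSO alone and 100% = 87 µM carbachol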
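Assay system: Zebrafish TRPN1-YFP in HEK293 cells | Incubation: Dye loading 1 h at 37 °C, then 30 min room temperature | Measured by: Kinetic Fluo-8 fluorescence, ex 470-495, em 515-575 nm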
14-3-3 Bad PPI – inhibitors of 14-3-3 zeta/Bad binding, primary screen, biochemical, TR-FRET, bovine 14-3-3 zeta. 14-3-3 protein zeta/delta (Bos taurus), P63103. 220,000 tested, 0.71% active. AID 781, 2007. TR-FRET 14-3-3zeta/Dy647-pBad peptide displacement, 1 h. inhibition, % at 21.7 µM;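 active = inhibition above about 70%, limit read from the data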;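 also: 0% = full 14-3-3 plus peptide FRET controls and 100% = background without 14-3-3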
Target sequence (P63103 whole entry, looked up): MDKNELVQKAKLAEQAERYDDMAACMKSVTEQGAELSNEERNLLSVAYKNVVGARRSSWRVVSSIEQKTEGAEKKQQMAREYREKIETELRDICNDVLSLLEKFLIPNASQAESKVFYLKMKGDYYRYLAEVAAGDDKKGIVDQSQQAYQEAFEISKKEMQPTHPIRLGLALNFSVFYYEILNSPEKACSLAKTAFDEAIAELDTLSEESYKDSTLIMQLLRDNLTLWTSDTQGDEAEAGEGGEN
EP2 modulator – EP2 receptor modulators, cAMP readout, primary screen, cell-based, HTRF cAMP, PGE2 stimulation. Prostaglandin E2 receptor EP2 subtype (Homo sapiens), P43116. EP2-expressing cells, cAMP HTRF FRET, PGE2 co-stimulation. induction, % at 25 µM. 260,000 tested, 0.83% active. AID 940, 2007;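 active = compounds whose cAMP rise, as percent of the full-agonist control response, exceeds 60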;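 also: rat C6 glioma line stably carrying human EP2 under a CMV promoter; the protocol text gives 20 µM as final concentration; 100% = response of wells given 1 µM PGE2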
Target sequence (P43116 whole entry, looked up): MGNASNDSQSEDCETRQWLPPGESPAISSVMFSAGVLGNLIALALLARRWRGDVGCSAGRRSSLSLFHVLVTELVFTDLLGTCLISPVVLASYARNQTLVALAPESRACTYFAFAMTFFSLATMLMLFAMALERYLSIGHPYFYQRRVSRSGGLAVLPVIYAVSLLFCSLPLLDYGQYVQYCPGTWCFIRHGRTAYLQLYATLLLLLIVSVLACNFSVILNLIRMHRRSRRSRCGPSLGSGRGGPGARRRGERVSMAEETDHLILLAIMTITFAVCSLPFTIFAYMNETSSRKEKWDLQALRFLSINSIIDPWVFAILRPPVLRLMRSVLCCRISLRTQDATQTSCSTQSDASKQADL
EP2 antag – human EP2 receptor antagonists, primary screen, TR-FRET cAMP, C6 glioma cells; Prostaglandin E2 receptor EP2 subtype (Homo sapiens), P43116; C6 glioma cells expressing human EP2; cells stimulated with saturating PGE2; 260,000 tested, 0.52% active; inhibition, % at 25 µM;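 active = percent inhibition above 40 after rounding to a whole number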;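 also: rat C6 glioma host cells with rolipram phosphodiesterase inhibitor present; the protocol text gives 20 µM as final concentration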
CHOP inh – inhibitors of CHOP promoter induction, primary screen, cell-based, unfolded protein response, luciferase reporter; 220,000 tested, 3.8% active; CHO-K1 CHOP-promoter luciferase, tunicamycin-induced, 15-18 h; inhibition, % at 10 µM;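 active = compounds that reduced the stress-induced luciferase reporter signal by more than about 70% of percent inhibition, limit read from the data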;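 also: 0% = tunicamycin plus vehicle and 100% = wells without tunicamycin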
TRPML3 ag – human TRPML3 channel agonists, primary screen, cell-based, HEK293 TRPML3-YFP, Fluo-8 calcium fluorescence, 3 µM | Mucolipin-3 (Homo sapiens), Q8TDD5 | 100% = the carbachol control signal | activation, % at 3 µM | 220,000 tested, 0.29% active | AID 1448, 2008;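 active = activation above its plate's cutoff, the mean activation of the plate's test wells plus 3 SD, cut at about 12% in these data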;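 also: 0% = DMSO only wells and 100% = carbachol wells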
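Test system – HEK293 line with stable expression of human TRPML3-YFP channel · Control set – carbachol 87 µM final as high control (100%), DMSO as low control (0%) · Signal – Fluo-8 calcium dye fluorescence, ex 470-495, em 515-575 nm · Incubation – 1-h 37 °C dye load, 5-s basal, 120-s post-compound reads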
Active calls of the source: *; & = joins results of further samples; ! = not active in a repeat.

What do the screens show for `CC[n+]1ccc(/C=C/c2ccc(N(C)C)cc2)c2ccccc21`?
TRPN1 ag: 0.6; 14-3-3 Bad PPI: -101; EP2 modulator: -316; EP2 antag: 96*; CHOP inh: 69; TRPML3 ag: 0.8

Results for CN/C(=C/[N+](=O)[O-])NCCSCc1ccc(CN(C)C)o1 ?
TRPN1 ag: 0.6; 14-3-3 Bad PPI: 0; EP2 modulator: 11; EP2 antag: 15; CHOP inh: 11; TRPML3 ag: 0.7

Results for COc1cc(CNC(=O)CCCC/C=C\C(C)C)ccc1O ?
TRPN1 ag: -1.6; 14-3-3 Bad PPI: 0; EP2 antag: 13; CHOP inh: 46; TRPML3 ag: -0.6

How did CN1C2CCC1CC(OC(=O)C(CO)c1ccccc1)C2 (configuration not stated) do in these assays?
EP2 modulator: 14&17&1; EP2 antag: 14&11&13; CHOP inh: -13&-12

Results for CCn1cc(C(=O)O)c(=O)c2cc(F)c(N3CCNCC3)cc21 ?
TRPN1 ag: 0.9; 14-3-3 Bad PPI: 0; EP2 modulator: 12&11; EP2 antag: 16&15; CHOP inh: 2; TRPML3 ag: 1.2

What do the screens show for `COC1=CC(=O)C[C@@H](C)[C@]12Oc1c(Cl)c(OC)cc(OC)c1C2=O`?
EP2 modulator: 31; EP2 antag: 11

How did Cc1nc(-c2ccc(NC(=O)c3cccs3)cc2)cs1 do in these assays?
TRPN1 ag: 3.0; 14-3-3 Bad PPI: 12; EP2 modulator: -10; EP2 antag: 17; CHOP inh: 41; TRPML3 ag: 1.2

Results for COc1ccc([C@@H]2Sc3ccccc3N(CCN(C)C)C(=O)[C@@H]2OC(C)=O)cc1 ?
TRPN1 ag: -0.2; 14-3-3 Bad PPI: 0; EP2 modulator: 35&2; EP2 antag: 11&13; CHOP inh: -1&14; TRPML3 ag: 0.7

What do the screens show for `CCCCNc1cc(C(=O)O)cc(S(N)(=O)=O)c1Oc1ccccc1`?
TRPN1 ag: 1.5; 14-3-3 Bad PPI: -1; EP2 modulator: 14&-15&-8; EP2 antag: 20&17&15; CHOP inh: 9&-2; TRPML3 ag: 0.5

How did CN=C(NC#N)NCCSCc1nc[nH]c1C do in these assays?
TRPN1 ag: -0.2; 14-3-3 Bad PPI: -4; EP2 modulator: -1&13&25; EP2 antag: 14&11&13; CHOP inh: 0&2; TRPML3 ag: 1.1

Results for O=c1[nH]cnc2c1ncn2[C@H]1CC[C@@H](CO)O1 ?
TRPN1 ag: 1.5; 14-3-3 Bad PPI: -2; EP2 antag: 13; CHOP inh: -1; TRPML3 ag: 0.5

How did Cc1cccc(CN2CCN(C(c3ccccc3)c3ccc(Cl)cc3)CC2)c1 (configuration not stated) do in these assays?
TRPN1 ag: 0.3; 14-3-3 Bad PPI: 17; EP2 modulator: 38&35; EP2 antag: 10&11; CHOP inh: 12; TRPML3 ag: 1.1

Brought forward from above: seven compounds, followed by the next part.
What do the screens show for `COC1=CC(=O)C[C@@H](C)[C@]12Oc1c(Cl)c(OC)cc(OC)c1C2=O`?
EP2 modulator: 31; EP2 antag: 11

How did Cc1nc(-c2ccc(NC(=O)c3cccs3)cc2)cs1 do in these assays?
TRPN1 ag: 3.0; 14-3-3 Bad PPI: 12; EP2 modulator: -10; EP2 antag: 17; CHOP inh: 41; TRPML3 ag: 1.2

Results for COc1ccc([C@@H]2Sc3ccccc3N(CCN(C)C)C(=O)[C@@H]2OC(C)=O)cc1 ?
TRPN1 ag: -0.2; 14-3-3 Bad PPI: 0; EP2 modulator: 35&2; EP2 antag: 11&13; CHOP inh: -1&14; TRPML3 ag: 0.7

What do the screens show for `CCCCNc1cc(C(=O)O)cc(S(N)(=O)=O)c1Oc1ccccc1`?
TRPN1 ag: 1.5; 14-3-3 Bad PPI: -1; EP2 modulator: 14&-15&-8; EP2 antag: 20&17&15; CHOP inh: 9&-2; TRPML3 ag: 0.5

How did CN=C(NC#N)NCCSCc1nc[nH]c1C do in these assays?
TRPN1 ag: -0.2; 14-3-3 Bad PPI: -4; EP2 modulator: -1&13&25; EP2 antag: 14&11&13; CHOP inh: 0&2; TRPML3 ag: 1.1

Results for O=c1[nH]cnc2c1ncn2[C@H]1CC[C@@H](CO)O1 ?
TRPN1 ag: 1.5; 14-3-3 Bad PPI: -2; EP2 antag: 13; CHOP inh: -1; TRPML3 ag: 0.5

How did Cc1cccc(CN2CCN(C(c3ccccc3)c3ccc(Cl)cc3)CC2)c1 (configuration not stated) do in these assays?
TRPN1 ag: 0.3; 14-3-3 Bad PPI: 17; EP2 modulator: 38&35; EP2 antag: 10&11; CHOP inh: 12; TRPML3 ag: 1.1

What do the screens show for `COc1cc(CNC(=O)CCCC/C=C/C(C)C)ccc1O`?
EP2 modulator: 8; EP2 antag: 11

What do the screens show for `Cc1ccc(-c2cc(N)n(-c3ccccc3)n2)cc1`?
TRPN1 ag: -1.7; 14-3-3 Bad PPI: -9; EP2 modulator: -14; EP2 antag: 3; CHOP inh: 29; TRPML3 ag: -1.2

Results for Cc1ccc(S(=O)(=O)NC(=O)NN2CCCCCC2)cc1 ?
TRPN1 ag: 1.2; 14-3-3 Bad PPI: -5; EP2 modulator: 21&9&13; EP2 antag: 10&12&13; CHOP inh: 4&5; TRPML3 ag: 0.7

Results for O=C1NCN(c2ccccc2)C12CCN(CCCC(c1ccc(F)cc1)c1ccc(F)cc1)CC2 ?
TRPN1 ag: -2.3; 14-3-3 Bad PPI: -11; EP2 modulator: 21&-4; EP2 antag: 15&24; CHOP inh: 106*!; TRPML3 ag: 0.1

Results for Cc1ncc([N+](=O)[O-])n1CCO ?
TRPN1 ag: -0.1&0.6; 14-3-3 Bad PPI: -2&-2; EP2 modulator: -1&24; EP2 antag: 13&13; CHOP inh: 11&-10; TRPML3 ag: 0.3&0.8

Results for CC[N+](C)(C)Cc1ccccc1Br ?
TRPN1 ag: 1.4; 14-3-3 Bad PPI: -10; EP2 modulator: 17&13; EP2 antag: 16&12; CHOP inh: 6&-10; TRPML3 ag: 1.0

How did O=C(O)CCc1nc(-c2ccccc2)c(-c2ccccc2)o1 do in these assays?
TRPN1 ag: 1.4; 14-3-3 Bad PPI: 2; EP2 modulator: 18&8&3; EP2 antag: 15&12&12&11; CHOP inh: -4&-2; TRPML3 ag: 1.0

What do the screens show for `Cc1cc2[nH]c3c(c[n+](C)c4ccccc34)c2cc1C`?
TRPN1 ag: 2.0; 14-3-3 Bad PPI: 24; EP2 modulator: -60; EP2 antag: 19; CHOP inh: -171; TRPML3 ag: 0.9

How did CCCCNC(=O)NS(=O)(=O)c1ccc(C)cc1 do in these assays?
TRPN1 ag: -1.3; 14-3-3 Bad PPI: 4; EP2 modulator: 9&23&11; EP2 antag: 7&7&13; CHOP inh: 0&10; TRPML3 ag: 0.3

How did Cc1[nH]c(=O)c(C#N)cc1-c1ccncc1 do in these assays?
TRPN1 ag: 0.3; 14-3-3 Bad PPI: -12; EP2 modulator: 27&45; EP2 antag: 23&12&4; CHOP inh: -1&9; TRPML3 ag: 0.8

What do the screens show for `Nc1ccn([C@@H]2O[C@H](CO)[C@@H](O)C2O)c(=O)n1` (some centres not stated)?
TRPN1 ag: -0.1; 14-3-3 Bad PPI: 3; EP2 antag: 14; CHOP inh: 31; TRPML3 ag: 0.9

Results for CCN1/C(=C\C(C)=O)Sc2ccc(OC)cc21 ?
TRPN1 ag: -0.4; EP2 modulator: 4; EP2 antag: 2; CHOP inh: 18; TRPML3 ag: 0.0

What do the screens show for `CCCC(=O)Nc1ccc(OCC(O)CNC(C)C)c(C(C)=O)c1` (configuration not stated)?
TRPN1 ag: 0.5; 14-3-3 Bad PPI: 2; EP2 modulator: 11&-7; EP2 antag: 17&10; CHOP inh: 6; TRPML3 ag: 0.8

How did Clc1ccc2c(c1)CCc1cccnc1C2=C1CCNCC1 do in these assays?
TRPN1 ag: 2.4&0.6; 14-3-3 Bad PPI: 3&-2; EP2 modulator: 5; EP2 antag: 9; CHOP inh: 2&55; TRPML3 ag: 2.2&0.4

The list is partial. The share of hits here may be higher or lower than overall.
